# Screening data as filed in PubChem.
# FPRL1 binder = human FPRL1 ligand, with FPR counter-screen; FPRL1-expressing cells, fluorescent ligand binding inhibition, flow cytometry; 24,000 tested, 0.3% active; inhibition, %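 (tested at 6.7 µM)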; P25090;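 further: 0% = buffer alone and 100% = receptor blocker peptide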
# Target sequence (P25090 whole entry, looked up): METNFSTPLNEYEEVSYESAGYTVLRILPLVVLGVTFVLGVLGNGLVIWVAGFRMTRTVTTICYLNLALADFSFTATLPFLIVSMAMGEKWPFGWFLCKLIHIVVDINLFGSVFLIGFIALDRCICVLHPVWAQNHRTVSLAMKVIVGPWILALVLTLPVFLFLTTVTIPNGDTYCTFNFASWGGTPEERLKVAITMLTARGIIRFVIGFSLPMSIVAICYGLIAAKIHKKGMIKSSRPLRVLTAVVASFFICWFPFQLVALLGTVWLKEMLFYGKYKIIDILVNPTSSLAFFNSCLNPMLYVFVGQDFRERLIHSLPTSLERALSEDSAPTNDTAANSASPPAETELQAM
# VCAM-1 down imaging = suppression of endothelial VCAM-1 upregulation – imaging, high-content imaging, pooled HUVEC, TNFa stimulus (AID 456) | HUVEC TNFa-induced VCAM-1 surface expression, immunofluorescence imaging; numbers were filed only for top-ranked candidate wells | inhibition, % at 5 µM, or IC50 in µM where a hit was titrated | 10,000 tested, 0.2% active;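 active means top tenth filtered wells with inhibition above zero that passed visual or statistical confirmation; inactive means the rest, including hits rejected on review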;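 further: 0% = stimulated vehicle wells and 100% = unstimulated cells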
# FPR binder = ligands of human FPR, also counter-screen for FPRL1 ligands | FPR-expressing cells, fluorescent ligand binding, flow cytometry | inhibition, %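 (tested at 6.7 µM)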 | 24,000 tested, 0.74% active | P21462;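 further: 0% = buffer wells and 100% = receptor blocker peptide wells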
# Target sequence (P21462 whole entry, looked up): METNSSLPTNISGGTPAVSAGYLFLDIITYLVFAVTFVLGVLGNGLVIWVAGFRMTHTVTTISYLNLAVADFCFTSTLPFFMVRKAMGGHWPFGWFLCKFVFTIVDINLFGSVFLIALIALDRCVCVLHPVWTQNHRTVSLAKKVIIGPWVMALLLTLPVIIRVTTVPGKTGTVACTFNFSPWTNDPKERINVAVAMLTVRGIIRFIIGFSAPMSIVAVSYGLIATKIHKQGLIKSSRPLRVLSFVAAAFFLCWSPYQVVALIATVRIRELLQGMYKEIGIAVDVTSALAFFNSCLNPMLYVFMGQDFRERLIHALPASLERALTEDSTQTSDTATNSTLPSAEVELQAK
# VCAM-1 down = inhibitors of TNFa-induced VCAM-1 surface display, cell-based, plate reader, pooled HUVEC, TNFa stimulus (AID 454). HUVEC TNFa-induced VCAM-1 surface immunofluorescence, plate reader; numbers were filed only for top-ranked candidate wells. inhibition, % at 5 µM. 10,000 tested, 0.2% active;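 active means compound among top-ranked inhibitors of TNF-induced VCAM-1 adhesion protein staining, with the hit upheld by image or statistical review; inactive means the rest, including hits rejected on review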;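 further: 0% = TNFa with vehicle and 100% = cells without TNFa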
# VCAM-1 augmentation = enhancers of VCAM-1 display on endothelial cells, imaging, high-content imaging, pooled HUVEC, TNFa stimulus (AID 457) | Pooled HUVEC, TNFa-induced VCAM-1 immunofluorescence imaging; hits of this screen are not shown here | calls only | 10,000 tested, 0.2% active;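 active means a top-ranked rise in VCAM-1 staining upheld on image or statistical review; inactive means the rest, including candidates rejected on review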;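 further: compounds tested at 5 µM in the well; cells exposed to compound for 24 hours before fixing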
# Active calls of the source: *; i = inactive; · = not tested or not shown.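 How the source made its calls, unless noted: active means mean above 30%; inconclusive means self-fluorescent; inactive means the rest.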
# Screens in order – FPRL1 binder, VCAM-1 down imaging, FPR binder, VCAM-1 down, VCAM-1 augmentation
> C/C(N)=C(/C#N)C(=O)COC(=O)CCSc1ccccc1
  -4, i, 1, i, i
> N#Cc1cnc(SCC(=O)Nc2ccccc2C(F)(F)F)nc1N
  3, i, 1, i, i
> CCCOC(=O)c1ccc(-c2c(C)noc2-c2ccc(OC)cc2O)o1
  -2, i, 8, i, i
> COc1ccccc1NC(=O)C1=C(C)Nc2nnnn2C1c1cccc(Br)c1 (configuration not stated)
  -5, ·, 4, ·, ·
> COc1cccc(-n2nc(C(=O)Nc3ccc4c(c3)OCO4)c3ccccc3c2=O)c1
  1, i, 2, i, i
> CCOc1ccc2nc(NC(=O)C3CCCN(S(=O)(=O)c4c(C)noc4C)C3)sc2c1 (configuration not stated)
  3, i, -3, i, i
> COc1ccc(CCN2C(=O)CCC2(C)C(=O)NCc2cccnc2)cc1OC (configuration not stated)
  -2, i, -2, i, i
> Cc1cc(C)n(-c2nc3sc4c(c3c3nnc(SCC(N)=O)n23)CC(C)(C)OC4)n1
  -37, i, -14, i, i
> CCC(=O)N1CCc2cc(Br)cc(S(=O)(=O)CC(=O)OC)c21
  -6, ·, -1, ·, ·
> OCc1nc(CO)n(Cc2ccccc2)n1
  3, i, -4, i, i
> CCOC(=O)N1CCN(c2cc(=O)n(C3CCCCC3)c(=O)[nH]2)CC1
  1, ·, -2, ·, ·
> CC(=O)Nc1nc(C)c(S(N)(=O)=O)s1
  -6, ·, 4, ·, ·
> CCOc1ccc(OCC)c(NC(=O)C2CCN(c3ncccn3)CC2)c1
  6, i, 2, i, i
> Cc1cc(C)n2nc(S(=O)(=O)N(CC(C)C)CC(C)C)nc2n1
  -3, ·, 2, ·, ·
> CN=C1CC(C)(C)CC(=O)/C1=C(/O)CCC(=O)NC
  1, i, -1, i, i
> Cc1ccnc(NC(=O)Nc2ccc(F)cc2)c1
  2, i, 3, i, i
> CCOc1ccccc1C1C(C(N)=O)=C(C)Nc2nc(-c3ccccc3Cl)nn21 (configuration not stated)
  -1, ·, -1, ·, ·
> CN1CCN(c2nc(C(N)=O)cc(-c3ccccc3)n2)CC1
  -1, ·, -15, ·, ·
> Cc1ccc(CCN2CC(C(=O)NC3CCCC3)CC2=O)cc1 (configuration not stated)
  -2, ·, 2, ·, ·
> COc1ccc(C2N(c3cc(Cl)ccc3OC)C(=O)C3CCCN32)cc1 (configuration not stated)
  -4, ·, -1, ·, ·
> CC(CCc1ccco1)NC(=O)Cn1nc(Cc2ccncc2)c2ccccc2c1=O (configuration not stated)
  -2, ·, 1, ·, ·
> Cc1ccc(S(=O)(=O)NCCCOC(=O)Nc2ccncc2)cc1
  -2, ·, -2, ·, ·
> COc1ccc(-c2nnc(SCc3nnc(-c4ccc(Cl)cc4)o3)n2-c2ccccc2)cc1
  1, i, -6, i, i
> COc1ccc(C2C(C(=O)N3CCN(c4ccccc4F)CC3)c3ccccc3C(=O)N2C)cc1 (configuration not stated)
  1, ·, 5, ·, ·
> COc1ccc(-n2nc(C(=O)NCC(=O)NCc3ccco3)c3ccccc3c2=O)cc1
  1, ·, -3, ·, ·
> CC1(C)Cc2c(C#N)c(NCCCO)nc(-c3ccccc3)c2CO1
  4, ·, 1, ·, ·
> O=C(COc1ccccc1Cl)NCCCN1CCOCC1
  -4, i, -4, i, i
> O=C(Nc1nc(-c2ccc(S(=O)(=O)N3CCCCCC3)cc2)cs1)c1cccs1
  -1, i, -1, i, i
> CCOC(=O)c1ccc2nc(C)c3c(c2c1)OC(C)C3 (configuration not stated)
  4, i, -8, i, i
> Cc1cccc(OCCCc2c(C)n[nH]c2C)c1
  -2, i, -1, i, i
> CCOC(=O)CSc1nnc(CNC(=O)c2ccccc2OC)n1-c1ccc(OC)cc1
  1, ·, 2, ·, ·
> O=C(NC1CCCCC1)c1ccc(S(=O)(=O)N2CCCCC2)cc1
  7, i, 0, i, i
> Cc1onc(-c2c(Cl)cccc2Cl)c1C(=O)NCC1CCCO1 (configuration not stated)
  0, i, -5, i, i
> O=C(Cn1nnc(-c2ccccc2F)n1)NCCc1ccccc1
  -3, ·, -15, ·, ·
> Cc1ccc(C2NC(=O)NC(O)(C(F)(F)F)C2C(=O)c2cccs2)o1 (configuration not stated)
  2, ·, -2, ·, ·
> O=C(/C=C/N1CCOCC1)c1ccc(-c2ccccc2)cc1
  -2, i, 3, i, i
> CCC(=O)Nc1nn(C)c2nc3c(C)cccc3cc12
  7, i, -6, i, i
> NC(=O)CN1C(=O)C(O)(CC(=O)c2ccccc2O)c2ccccc21 (configuration not stated)
  4, i, -4, i, i
> Cc1noc(C)c1CSc1nnc2n(-c3ccccc3)c(=O)c3ccccc3n12
  -1, i, 6, i, i
> Cc1noc(C)c1S(=O)(=O)N1CCC(C(=O)N2CCC(N3CCCCC3)CC2)CC1
  0, ·, -6, ·, ·

# 7 entries from above in a different format.
canonical_smiles | FPRL1 binder | VCAM-1 down imaging | FPR binder | VCAM-1 down | VCAM-1 augmentation
Cc1ccc(S(=O)(=O)NCCCOC(=O)Nc2ccncc2)cc1 | -2 | · | -2 | · | ·
COc1ccc(-c2nnc(SCc3nnc(-c4ccc(Cl)cc4)o3)n2-c2ccccc2)cc1 | 1 | i | -6 | i | i
COc1ccc(C2C(C(=O)N3CCN(c4ccccc4F)CC3)c3ccccc3C(=O)N2C)cc1 (configuration not stated) | 1 | · | 5 | · | ·
COc1ccc(-n2nc(C(=O)NCC(=O)NCc3ccco3)c3ccccc3c2=O)cc1 | 1 | · | -3 | · | ·
CC1(C)Cc2c(C#N)c(NCCCO)nc(-c3ccccc3)c2CO1 | 4 | · | 1 | · | ·
O=C(COc1ccccc1Cl)NCCCN1CCOCC1 | -4 | i | -4 | i | i
O=C(Nc1nc(-c2ccc(S(=O)(=O)N3CCCCCC3)cc2)cs1)c1cccs1 | -1 | i | -1 | i | i

# Going on with the list.
# Screens in order – FPRL1 binder, VCAM-1 down imaging, FPR binder, VCAM-1 down, VCAM-1 augmentation
> CCOc1cccc(/C(O)=C2/C(=O)C(=O)N(CCN3CCOCC3)C2c2cccnc2)c1 (configuration not stated)
  8, i, 15, i, i
> CCCCOc1ccc(CNn2c(C)nc3ccccc3c2=O)cc1
  -1, ·, 3, ·, ·
> CC(=O)c1c(C)[nH]c(C(=O)Nc2ccc(C)cn2)c1C
  0, ·, 4, ·, ·
> CCOC(=O)Nc1ccc(NS(=O)(=O)c2ccc(C)cc2)cc1
  4, i, -12, i, i
> COc1ccc(-n2c(=O)cc(N3CCc4ccccc43)[nH]c2=O)cc1
  -5, ·, 3, ·, ·
> CN1CCCCCC1=Nc1ccccc1C#N
  -2, ·, 0, ·, ·
> O=C(NC1(C(F)(F)F)Oc2ccccc2O1)N1CCCC1
  -4, ·, 4, ·, ·
> CC1(C)Oc2ccc3ccc(=O)oc3c2C(N2CCCCC2)C1O (configuration not stated)
  -2, i, -2, i, i
> CC(C)CC(c1nnnn1CC1CCCO1)N1CCN(Cc2ccc3c(c2)OCO3)CC1 (configuration not stated)
  -1, i, -3, i, i
> Cc1ccc2cc(-c3noc(C4CCCO4)n3)c(=O)[nH]c2c1 (configuration not stated)
  0, ·, -1, ·, ·
> CCOc1ccccc1NC(=O)CSc1nc(N)c(C#N)cc1C#N
  4, ·, -2, ·, ·
> CCOc1ccc(CCNS(=O)(=O)c2c(C)n[nH]c2C)cc1OCC
  2, ·, 4, ·, ·
> Cc1ccccc1-c1nc(CN2CCC(C(=O)NCCCN3CCCC3)CC2)c(C)o1
  1, i, 3, i, i
> Cn1c(=O)c2cc(S(=O)(=O)NCCC(=O)NCc3ccccc3Cl)ccc2n(C)c1=O
  -6, ·, 1, ·, ·
> Fc1ccc(-n2c(Cc3ccccc3)nnc2SCc2nc(-c3cccs3)no2)cc1
  -3, i, 0, i, i
> CC1(C)C(c2cccs2)=[N+]([O-])C2(CCCCC/C2=N\O)N1O (configuration not stated)
  1, i, 2, i, i
> COc1ccccc1NC(=O)C1CC(=O)N(c2ccc(F)cc2)C1 (configuration not stated)
  7, i, -8, i, i
> CCCCCOc1ccc(OC(=O)c2ccncc2)cc1
  0, ·, -14, ·, ·
> COc1ccccc1NC(=O)NCCN1C(=O)C2C3C=CC(C3)C2C1=O (configuration not stated)
  2, ·, 0, ·, ·
> CC(OC1=CC(=O)CCC1)C(=O)c1ccccc1 (configuration not stated)
  0, i, 4, i, i
> CCOC(=O)c1ccc(S(=O)(=O)NC2CCCCCCC2)n1C
  2, i, 2, i, i
> CCOC(=O)N1CCN(C(=O)C2CCC(=O)N2C(C)C)CC1 (configuration not stated)
  2, ·, 3, ·, ·
> Cc1ccc(-n2nnnc2SCC(=O)N2CCc3ccccc3C2)cc1
  -3, i, 1, i, i
> CCc1ccc(-c2nc(CN3CCC(C(=O)NCc4ccccc4OC)CC3)c(C)o2)cc1
  -4, ·, -1, ·, ·
> CCOC(=O)N1CCN(S(=O)(=O)c2cc(Br)cnc2N)CC1
  2, ·, -11, ·, ·
> O=C(CN1C(=O)CC(c2ccco2)Sc2ccccc21)Nc1ccccc1F (configuration not stated)
  -4, i, 2, i, i
> O=C(NCc1n[nH]c(=S)n1-c1ccc(F)cc1)c1ccco1
  1, i, -4, i, i
> Cn1nc(OCc2ccccc2)ccc1=O
  0, ·, 0, ·, ·
> Cc1cccc(N2CCN(S(=O)(=O)c3ccc4c(c3)n(C)c(=O)c(=O)n4C)CC2C)c1 (configuration not stated)
  -5, ·, 3, ·, ·
> CC(C)N1C(=O)CCC1C(=O)N1CCC(Cc2ccccc2)CC1 (configuration not stated)
  3, ·, 7, ·, ·
> O=C(Cc1ccc(F)cc1)Nc1c2c(nn1-c1cccc(Cl)c1)CS(=O)C2 (configuration not stated)
  20, ·, -4, ·, ·
> CSC1CCCCC1(O)CSc1nc2c(cc1C#N)CCCC2 (configuration not stated)
  21, i, 22, i, i
> Cc1ccc(C(C)C)c(OCc2nc(-c3nonc3N)no2)c1
  -5, ·, -4, ·, ·
> O=C(c1ccc(-c2ccccc2)cc1)N1CCC(C(=O)N2CCCC2)CC1
  0, i, 2, i, i
> COc1cc(N2C(=O)CSC23C(=O)Nc2ccccc23)cc(OC)c1OC (configuration not stated)
  -5, i, -14, i, i
> COc1ccc(C)cc1S(=O)(=O)N(C)CC(=O)Nc1ccc2c(c1)OCCO2
  1, i, -1, i, i
> Cc1cccnc1-n1c(CCN2C(=O)c3ccccc3C2=O)nc2ccccc2c1=O
  9, i, -2, i, i
> CCOC(=O)C1CCCN(C(=O)C2CCCN(S(=O)(=O)c3ccc4c(c3)oc(=O)n4C)C2)C1 (configuration not stated)
  1, ·, 0, ·, ·
> CC(C)(C)NC(=S)Nc1ccc(Nc2ccccc2)cc1
  -8, ·, -18, ·, ·
> CCN(CC)CCN1C(=O)c2oc3ccc(F)cc3c(=O)c2C1c1ccncc1 (configuration not stated)
  -1, i, -4, i, i
> COc1ccc(Cl)cc1NC(=O)c1oc(C)nc1C
  -2, i, -1, i, i
> CCC(Sc1ccc2nnc(-c3ccc(F)cc3)n2n1)C(=O)OC (configuration not stated)
  0, i, 11, i, i
> CCCCP(=O)(CCCC)Cc1ccccc1O
  8, i, -4, i, i
> Cc1sc2c(c1C)CN(C1CC(C)(C)NC(C)(C)C1)CN2C(=O)c1ccco1
  -4, i, 2, i, i
> CCc1c(-c2ccccc2)nc2nc(C)c(C)nn12
  -4, ·, -9, ·, ·
> CC1CCCCN1CCNS(=O)(=O)c1ccc2c(c1)oc(=O)n2C (configuration not stated)
  0, i, -5, i, i
> CCCCn1c(NC(C)=O)c(C#N)c2nc3ccccc3nc21
  4, ·, 66*, ·, ·
> Cc1noc(/C=C/N(C)C)c1S(=O)(=O)N1CCCC(C(=O)NCc2ccc(F)cc2)C1 (configuration not stated)
  1, ·, 2, ·, ·
> O=C(Nc1ccncc1)c1cc2ccccc2oc1=O
  2, ·, -8, ·, ·
> Cc1onc(-c2c(Cl)cccc2Cl)c1C(=O)NCCN1CCOCC1
  13, i, 23, i, i
> COc1ccc(NC2c3ccccc3C(=O)N2Cc2ccco2)cc1OC (configuration not stated)
  5, ·, -2, ·, ·
> Cc1ccc(N(CC(=O)NCc2cccs2)S(=O)(=O)c2cccs2)cc1
  -1, ·, -2, ·, ·
> COCCCNC(=O)C1CCN(C(=O)Nc2ccc(Cl)cc2)CC1
  2, i, 2, i, i
> Cn1c(=NC(=O)CSCC(=O)N2CCCC2)sc2ccccc21
  -1, ·, -3, ·, ·
> COc1cccc(C2N(c3ccccn3)C(=O)C3CCCN32)c1OC (configuration not stated)
  -4, ·, 0, ·, ·
> O=C(Nc1ccccc1)N(CCc1ccncc1)C1CCCCC1
  0, ·, -2, ·, ·

# An excerpt; the hit share may differ from the screen's.
